T cruzi repl: blocks replication of Trypanosoma cruzi. T. cruzi beta-gal in NIH3T3, luminescence, 90 h. inhibition, % (test concentration not listed). actives 1.4% (n = 300,000);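 active = mean inhibition across valid replicates above about 55%, limit read from the data; inconclusive = mean below that limit but half or more replicates reach it; inactive = mean below it, under half of replicates reach it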;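 note: signal also drops with host cell toxicity which is not excluded here; 0% = plate median of DMSO wells and 100% = zero luminescence signal; higher percent means less beta-gal luminescence so fewer parasites; stock transfer was 50 nL into about 50 µL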
Calb FLC: C. albicans growth modulation with fluconazole; C. albicans CaCi-2 (fluconazole-resistant clinical isolate) + fluconazole, Alamar Blue growth, 48 h; growth inhibition, % (test concentration not listed); actives 0.57% (n = 300,000);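 active = most replicates above 75%; inconclusive = exactly half above 75%; inactive = most below 75%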;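 note: all wells also contain fluconazole at 8 µg/ml as a sub-toxic cotreatment; 0% = median of DMSO wells and 100% = median of geldanamycin control wells; wells of about 8 µL received 7.5 nL stock; the first replicate is given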
Bfl-1 A1 inh: inhibitors of the anti-apoptotic protein A1, read as caspase activation; MEF A1-2A-BIM cells, Caspase-Glo 3/7 luminescence, 3 h; percent of clofoctol response, vehicle zero; caspase activation, % (concentration not given with the values); actives 0.066% (n = 330,000); AID 2462;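 active = over half of replicate activation scores above 10%, or exactly half above 10 with the replicate mean above 10; inconclusive = replicate mean below 10 yet half the replicates above 10; inactive = over half of replicates below 10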;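 note: wells of about 30 µL received 50 nL stock; many hits fall short of the cut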
Beta cell apopt: beta cell apoptosis inhibition; INS-1E cytokine-induced death, ATP luminescence, 48 h; percent of positive-control rescue, neutral wells zero; protection from apoptosis, % (concentration not given with the values); actives 0.8% (n = 300,000);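 active = all replicates at 75% or more, or half of them and the mean; inconclusive = half reach 75% but not the mean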;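 note: 0% = cytokine-treated negative control wells and 100% = positive control rescue; higher means more ATP so stronger rescue from cytokine killing; wells of about 40 µL received 100 nL stock; the first replicate is given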
LANA-H2B inh: blocks KSHV LANA binding to histone H2A/H2B. Q9QR71. cell-free LANA-H2A/H2B peptide, fluorescence polarization. inhibition, % (no concentration beside the values). actives 0.6% (n = 320,000). AID 2629; in the data active = inhibition mostly above about 10%, no sharp cut-off; inactive = mostly below about 6.7%;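 note: stock transfer was 7.5 nL into about 10 µL; 0% = median of vehicle wells and 100% = median of positive control wells; one replicate is shown; the record names a cut of 25% in any replicate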
Target sequence (Q9QR71 whole entry, looked up): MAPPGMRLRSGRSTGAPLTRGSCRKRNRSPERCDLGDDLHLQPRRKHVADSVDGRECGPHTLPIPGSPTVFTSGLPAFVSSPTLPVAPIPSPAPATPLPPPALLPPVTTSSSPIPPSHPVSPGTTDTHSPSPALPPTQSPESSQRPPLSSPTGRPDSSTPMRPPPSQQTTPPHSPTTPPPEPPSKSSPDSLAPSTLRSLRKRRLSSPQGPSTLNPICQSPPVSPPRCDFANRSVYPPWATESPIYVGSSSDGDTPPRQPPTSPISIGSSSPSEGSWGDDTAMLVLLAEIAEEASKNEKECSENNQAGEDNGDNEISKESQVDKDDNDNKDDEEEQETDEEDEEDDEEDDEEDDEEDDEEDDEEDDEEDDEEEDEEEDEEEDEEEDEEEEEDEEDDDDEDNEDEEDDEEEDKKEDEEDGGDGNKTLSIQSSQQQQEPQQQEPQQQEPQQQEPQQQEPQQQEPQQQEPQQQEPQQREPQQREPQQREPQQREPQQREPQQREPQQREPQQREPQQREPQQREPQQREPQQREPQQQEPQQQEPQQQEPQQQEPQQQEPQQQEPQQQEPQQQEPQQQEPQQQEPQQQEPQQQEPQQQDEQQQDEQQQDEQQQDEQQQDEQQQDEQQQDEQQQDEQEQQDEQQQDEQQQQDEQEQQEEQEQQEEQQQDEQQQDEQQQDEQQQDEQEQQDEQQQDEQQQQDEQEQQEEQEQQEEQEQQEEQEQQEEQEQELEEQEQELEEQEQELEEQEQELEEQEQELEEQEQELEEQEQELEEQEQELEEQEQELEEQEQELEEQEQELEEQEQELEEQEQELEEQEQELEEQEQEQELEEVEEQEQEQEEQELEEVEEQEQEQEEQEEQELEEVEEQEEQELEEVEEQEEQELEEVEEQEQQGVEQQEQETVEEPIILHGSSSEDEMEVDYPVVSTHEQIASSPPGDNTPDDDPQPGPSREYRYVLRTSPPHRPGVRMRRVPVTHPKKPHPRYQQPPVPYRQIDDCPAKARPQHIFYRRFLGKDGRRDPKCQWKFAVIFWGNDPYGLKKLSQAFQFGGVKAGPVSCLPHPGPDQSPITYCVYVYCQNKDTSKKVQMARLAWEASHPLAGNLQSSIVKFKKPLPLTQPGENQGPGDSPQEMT
Vif TR-FRET: HIV-1 Vif–A3G interaction blockers – biochemical, TR-FRET, GST-Vif 1-94, biotin-A3G peptide, dose response retest, primary screen (AID 1117319) | actives 0.57% (n = 260,000) | inhibition, %; hits with a dose series show IC50 in µM | TR-FRET GST-Vif / biotin-A3G peptide binding; higher % means a stronger effect; test concentration not given here; strong numbers were not always called active;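 active = above the screen mean plus three standard deviations and confirmed in dose response; inconclusive = results disagree or hit not tested in dose response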;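 note: Vif residues 1-94 fused to GST binding biotinylated APOBEC3G peptide 110-148; 0% = full assay without inhibitor and 100% = GST in place of GST-Vif; retest series ran down from 100 µM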
AF4-AF9 inh: inhibitors of human MLL-AF4/AF9 interaction. actives 0.47% (n = 350,000). AlphaScreen, biotin-AF4 peptide binding to FLAG-AF9. AID 651704. P42568. inhibition, % at 10 µM;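 active = every replicate reaching a set inhibition limit, whatever the replicate mean, cut at about 25% in these data; inconclusive = mean inhibition reaches that limit but some replicates miss it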;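 note: 0% = plate neutral control median and 100% = total signal loss; the record names both 10 and 1 µM as test concentration; the first replicate is given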
RanGTP-Impb inh: disruptors of Ran-importin-beta complex formation – biochemical, FRET, CFP-Ran, YFP-importin-beta, homogeneous, primary screen. actives 1.1% (n = 300,000). cell-free CFP-Ran/YFP-importin-beta FRET ratio. inhibition, % (concentration not given with the values);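 active = most replicates above 15%; inconclusive = exactly half above 15%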;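 note: 0% = DMSO wells and 100% = Ran loaded with GDP instead of GTP; wells of about 40 µL received 100 nL stock; the first replicate is given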
* hit, by the source's call; ? = inconclusive; / = not tested or not shown; & = joins results of further samples. Rows were taken by chance (roughly 4.3% active in at least one column).

entry	mol	T cruzi repl	Calb FLC	Bfl-1 A1 inh	Beta cell apopt	LANA-H2B inh	Vif TR-FRET	AF4-AF9 inh	RanGTP-Impb inh
1	Cn1c(=O)[nH]c(=O)c2c1nc(CN1CCOCC1)n2CCCc1ccccc1	3.7	-9.1	-0.5	7.3	5.2	-4.5%	-9.2	2.9
2	O=C(O)CCC(=O)Nc1ccc(N2CCCCCC2)cc1	-3.5	1.2	?	0.1	-3.6	?	/	2.7
3	COC(=O)c1ccccc1N1CCS(=O)(=O)CC1	-3.7	5.1	0.0	4.7	-2.1	-7.9%	-2.8	3.2
4	CC(Sc1nc2c(c(=O)[nH]1)CCCC2)C(=O)Nc1ccc(S(N)(=O)=O)cc1 (stereo not drawn)	-11.4	-6.9	0.5	-0.7	-1.3	/	-7.8	5.2
5	Cc1cc(C)cc(NC(=O)Nn2cnnc2)c1	-14.9	-6.8	0.4	-8.3	-1.7	4.1%	-10.1	-0.3
6	CS(=O)(=O)N1CCC(C(=O)Nc2cc(Cl)c(Cl)cc2Cl)CC1	-19.1	-10.3	0.6	-2.9	-3.3	/	0.9	3.1
7	CC1Cc2ccccc2N1C(=S)NC(=O)c1ccc(Cl)cc1Cl (stereo not drawn)	-6.1	5.1	0.1	13.5	-0.9	/	-11.2	-2.3
8	Cc1cc(=O)[nH]c2c(C)cc(S(=O)(=O)Nc3ccc(O)cc3)cc12	-6.6	1.8	-0.1	1.9	1.7	/	-18.7	?
9	CC1O[C@@H](OC2C(O)C(C)O[C@H](OC(=O)[C@]34CCC(C)(C)C[C@H]3C3=CCC5[C@@]6(C)CC(O)C(O[C@@H]7OC(CO)C(O)[C@@H](O)[C@@H]7O)[C@@](C)(C(=O)O)C6CC[C@@]5(C)[C@]3(CO)CC4)C2O[C@H]2OC(C)[C@@H](O[C@@H]3OCC(O[C@@H]4OC(CO)C(O)[C@H](O)C4O)[C@@H](O)[C@@H]3O)[C@H](O)C2O)C(O)C(O)C1O (stereo partly drawn)	/	/	-0.2	-2.2	1.7	/	-3.1	/
10	CCC(Oc1ccccc1)C(=O)N1CCN(CC)CC1 (stereo not drawn)	0.6	14.4	2.9	/	-0.3	3.1%	/	6.2
11	Nc1nc(C2CC2)c(Sc2sc(N)nc2C2CC2)s1	7.9	0.7	-0.4	-21.8	1.1	-2.1%	/	2.7
12	CCOC(=O)c1ccc(NC(=O)C2(c3ccc(OC)cc3)CCCC2)cc1	26.5	-4.7	0.8	0.2	2.0	4.6%	/	3.7
13	CC(C)CCN1NC2(CCCC(C)C2)NC1=S (stereo not drawn)	-20.4	-5.3	3.7	-3.3	-2.0	/	-2.3	0.0
14	O=C(CNC(=O)OCc1ccccc1)NC1CCCCCC1	5.0	1.9	0.5	-7.2	17.3*	22.8%	-0.9	3.3
15	CC(C)Cn1c(-c2ccc(Cl)cc2)cnc1SCC(=O)N1CCOCC1	19.1	1.4	0.6	-1.1	-2.9	3.3%	?	-3.2
16	CS(=O)(=O)N(CC(=O)N1CCc2ccccc2C1)c1cccc(Br)c1	-13.4	-3.0	0.1	-6.2	-0.2	/	-0.9	-0.9
17	c1ccc(CC2CCN(c3ncnc4sccc34)CC2)cc1	13.2	96.8*	/	/	/	5.3%	-2.0	-1.6
18	CCCc1[nH]nc2c1C(c1cccnc1)C(C#N)=C(N)O2 (stereo not drawn)	-2.6	-3.9	0.1	-2.7	10.2	2.5%	/	5.6
19	Cc1ccc(OCC(=O)Nc2ccc(O)c(-c3nc4ccccc4o3)c2)cc1	6.2	-2.6	-0.4	6.8	5.4	-2.0%	/	-1.6
20	CCCNC(=O)Nc1ccc2c(c1)nc(C)n2C	-10.6	0.3	0.3	-6.8	-1.2	8.9%	/	1.5
21	O=C(CCc1ccccc1)NC(=S)Nc1cccc(Br)c1	-1.0	-20.2	0.6	-0.4	3.7	12.6%	/	8.1
22	O=C(NCC1COc2ccccc2O1)c1cccc(S(=O)(=O)N2CCOCC2)c1 (stereo not drawn)	/	/	-0.2	-3.2	26.5*	/	3.2	/
23	CC(C)CC1NC(=O)N(CC(=O)N2CCN(S(=O)(=O)c3ccccc3)CC2)C1=O (stereo not drawn)	-16.7	5.2	0.5	-9.8	4.9	5.4%	/	4.2
24	O=C1C2C3C=CC(C3)C2C(=O)N1c1ccc(Cc2ccncc2)cc1 (stereo not drawn)	-8.7	-4.8	-0.7	4.8	-1.9	2.9%	/	-2.0
25	CCOC(=O)N1CCC(N2Cc3cccc(C(=O)Nc4ccc(CC)cc4)c3C2=O)CC1	23.1	-3.0	-0.1	5.3	2.1	-0.4%	/	-1.0
26	CC1CCCC(C)N1C(=O)C1CCCCC1 (stereo not drawn)	-4.9	-5.3	0.1	-6.2	-1.3	13.5%	0.4	1.4
27	O=C(C1CC1)N1CCc2cc(S(=O)(=O)N3CCN(c4ccccc4)CC3)ccc21	7.5	-30.2	-1.0	3.7	-4.3	/	-0.2	-0.1
28	C=C(Cl)COC(=O)[C@H]1C2C=CC(C2)C1C(=O)O (stereo partly drawn)	-21.9	0.6	0.2	-6.5	6.0	-1.7%	/	-0.8
29	CCOc1c(Cl)cc(/C=C/C(=O)N(CC)CC(=O)Nc2ccc(NC(C)=O)cc2)cc1OC	17.9	-4.1	-0.1	10.0	4.4	/	3.2	1.4
30	Cc1nn(C)c(C)c1N=Cc1c(O)ccc2ccccc12	-9.4	12.9	-0.1	-3.6	-3.3	11.9%	8.2	/
31	O=C(c1ccc(F)cc1)N(Cc1cccs1)C1CCS(=O)(=O)C1 (stereo not drawn)	-6.2	5.8	0.3	-6.5	-4.6	/	0.2	12.1
32	CC(C)c1ccc(/C=N/n2c(COc3ccccc3)n[nH]c2=S)cc1	-4.2	-12.5	-0.6	3.6	0.7	-0.5%	-2.3	4.9
33	CCC(=O)Nc1ccc(C(=O)NNC(=O)C(c2ccccc2)c2ccccc2)cc1	-0.6	-7.4	1.4	-5.4	-3.0	4.9%	/	-2.5
34	NC(=O)CC(NC(=O)c1ccccc1)c1ccc(NCCc2ccc(F)cc2)c([N+](=O)[O-])c1 (stereo not drawn)	-15.3	-9.9	-0.4	9.5	4.6	2.4%	-1.4	-0.5
35	O=C(Cc1ccccc1)N1CCCC(c2nc(-c3cccs3)no2)C1 (stereo not drawn)	24.0	8.9	-1.1	1.2	2.1	7.0%	/	-1.8
36	Cc1ccc(C(C(=O)NC(C)(C)C)N(CC2CCCO2)C(=O)c2csnn2)cc1 (stereo not drawn)	-2.1	-3.2	-0.2	3.2	-0.1	/	-1.2	0.6
37	S=C(Nc1ccccc1)Nc1cc(Cl)ccc1Oc1ccccc1	2.4	-0.9	-0.3	-3.5	2.3	2.3%	/	2.8
38	CCC(C)NC(=O)Cn1nc(C(F)(F)F)c2c1CCC2 (stereo not drawn)	-14.7	-2.9	0.5	-3.6	-0.1	6.1%	-0.9	4.3
39	CCOc1ccccc1NC(=O)c1ccc2c(=O)n3c(nc2c1)CCCCC3	7.0	6.6	-2.4	-1.3	-1.0	/	0.5	-1.1
40	Cc1cc(C)nc(NC(=O)c2c(-c3ccccc3Cl)noc2C)c1	-4.7	-9.1	0.0	-4.4	-14.4	-0.6%	/	-2.2
41	CC/C(=N/Nc1ccccc1Cl)c1cnnc(-c2ccccc2)n1	43.2	-10.2	0.0	-1.2	-2.7	-0.4%	/	?
42	O=C(c1ccc(-c2cccc(C(F)(F)F)c2)o1)N1CCCC(C(F)(F)F)C1 (stereo not drawn)	11.9	-2.0	?	-10.1	-1.9	/	-0.9	-2.3
43	COc1cccc2sc3ccc(NCCC4CCCN4C)cc3c(=O)c12 (stereo not drawn)	1.4	-20.1	0.7	3.9	-2.5	/	8.4	-243.3
44	CCc1nn(CC(=O)NCCCN(CC)Cc2ccccc2)c(=O)c2cc3sccc3n12	16.4	-3.1	1.0	-5.1	-2.9	-1.2%&-11.9%	/	-1.3
45	O=C1c2ccccc2NC(c2cccc(F)c2)N1Cc1ccco1 (stereo not drawn)	-7.3	-5.5	-0.1	-9.0	9.2	16.7%	7.9	?
46	O=C(CSc1nc2ccccc2[nH]1)N=Nc1c(O)[nH]c2ccccc12	13.5	-5.4	0.2	1.1	-0.1	/	/	-1.3
47	Cn1cnnc1SCC(=O)NN1C(=O)NC(C)(c2ccccc2)C1=O (stereo not drawn)	-21.4	?	-0.8	-10.4	0.5	19.4%	-7.4	1.0
48	C/C(=N\NC(=O)CC1N=C(Cc2ccccc2)NNC1=O)c1ccc(Cl)cc1Cl (stereo not drawn)	3.8	0.5	0.0	0.5	-2.6	0.0%	/	-2.0
49	Cc1nc2nc(-c3ccco3)[nH]n2c(=O)c1C	-19.9	10.9	-0.2	3.5	0.4	7.2%	/	-3.5
50	COc1ccc(NC(=S)NCCSc2ccc(Cl)cc2)c(OC)c1	6.8	-18.8	1.0	3.9	-3.5	9.2%	/	-0.3
51	Cc1cccc(NC(=O)NNC(=O)c2ccc3ccccc3c2O)c1	4.5	48.0	0.1	-1.7	1.9	-3.3%	1.2	-0.5
52	CCn1c2ccccc2c2nnc(SCC(=O)NC(CC(C)C)C(=O)OC)nc21 (stereo not drawn)	7.6	0.1	0.6	3.6	3.4	-3.0%	/	?
53	COCCN(C(=O)COC(=O)CCc1nc2ccccc2s1)c1c(N)n(Cc2ccccc2)c(=O)[nH]c1=O	-4.4	-2.8	0.3	-3.5	3.4	-3.3%	-1.3	-1.1
54	C/C(=N\NC(=O)c1ccc(NS(=O)(=O)c2cccs2)cc1)c1ccc(Cl)cc1	-4.5	1.4	-1.6	-1.9	-1.7	/	/	-3.8
55	CCc1nnc(NC(=O)c2cccc(S(=O)(=O)N3CCN(C(C)=O)CC3)c2)s1	/	/	0.0	-0.7	-38.3	?	-3.6	/
56	COc1ccc(C(=O)Nc2cc(OC)c(Cl)cc2OC)cc1	-18.3	12.8	0.3	7.9	-3.8	3.8%	-1.8	-1.2
57	CCOC(=O)C(NC(=O)Nc1ccc(F)cc1)(OCC)C(F)(F)F (stereo not drawn)	2.0	-7.7	0.1	-2.7	3.3	28.9%	/	0.1
58	CCCOCc1ccc(O)c2ncccc12	56.7*	89.9*	-0.4	107.2*	4.7	-11.7%	-2.9	1.3
59	O=C(NCC(c1ccco1)N1CCc2ccccc2C1)c1ccc(Br)cc1 (stereo not drawn)	11.2	-6.5	0.5	2.6	-4.4	-0.9%	-1.0	-0.2
60	O=C(COc1ncnc2sccc12)N1CCc2ccccc2C1	2.5	-4.9	0.1	-3.8	-2.5	0.8%	/	-0.4
